Screening data (PubChem BioAssay)
LT uptake inh: blocks cellular internalization of anthrax lethal toxin. AID 912. 70,000 tested, 0.67% active. Potency, µM (doses to about 40 µM), inactives show at the top dose activity change, negative = inhibition, usual class: inhibitors. Cells, anthrax lethal toxin internalization, FRET ratio (460/530); active = well fitted falling ratio curve with the 530 nm signal flat; inconclusive = other ratio curves, or a change in one channel alone; inactive = flat curves in the ratio and both channels; the % refers to the ratio; further: on the % scale 0 is the no-effect control and ±100 the full control effect; nearly all actives have a fitted effect of over 50% in size; tested in ME-180 cells; beta-lactamase reporter
SmPrx2 inh: Schistosoma mansoni Prx2 inhibition | Potency, µM | S. mansoni Prx2 activity coupled to TGR/GSH (TGR is thioredoxin glutathione reductase), NADPH fluorescence loss, qHTS; some inactives read as strong as hits | 65,000 tested, 0.07% active; active means full or partial inhibition curve with a strong effect at the top dose; inconclusive means weaker partial or single-point curve; inactive means no accepted curve; further: series up to 57 µM; many of its hits are not listed in these tables
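qHTS, coupled TGR/Prx2 format; 15 min compound preincubation at RT; reaction started with H2O2 (2.5 mM aliquot); kinetic NADPH fluorescence decrease, ex 365/em 450 nm.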
An asterisk follows results filed as active; ? = inconclusive; nt = not tested or not shown; [ ] = another dose, or the depositor's remark. Potency means the concentration at half of the fitted maximal effect. Only part of the results is shown; count on the stated rates, not on these rows.

Structure | LT uptake inh | SmPrx2 inh
CN1CCc2cc(NC(=O)Nc3cccnc3)ccc21 | -8% | >57
COc1cccc(C2C=C(c3ccc(Br)s3)Nc3ncnn32)c1OC (configuration not stated) | ? | >57
O=C1CC(N2CCC(c3nc4ccccc4s3)CC2)C(=O)N1 (configuration not stated) | 5% | >57
CCCn1nnc(NC(=O)c2cccc(OCC)c2)n1 | 1% | >57
CCOC(=O)Cc1c(C)nc2cc(-c3ccc(C)cc3)[nH]n2c1=O | -9% | >57
O=C(NCC1CCCO1)C1CCN(S(=O)(=O)c2cccc3cccnc23)CC1 (configuration not stated) | 1% | >57
O=C(O)c1n[nH]c2ccccc12 | 2% | >57
COC(=O)c1ccc2c(=O)n(CCCN3CCOCC3)c(=S)[nH]c2c1 | 21% | >57
O=C(c1ccccc1)[C@H]1[C@H](c2ccccc2[N+](=O)[O-])N1C1CCCCC1 (some centres not stated) | ? | >57
CC(C)(C)Nc1nc(Oc2ccc(=O)n(-c3ccccc3)n2)nc(N2CCOCC2)n1 | -9% | >57
O=C(Nc1ccccc1)N1CC2(CCN(C(=O)c3ccco3)CC2)C1 | -10% | >57
O=c1oc2c3c4c(cc2s1)CCCN4CCC3 | ? | nt
O=C(CCCn1c(=O)c2ccccc2n(Cc2ccccc2)c1=O)NCc1ccco1 | -11% | >57
Cn1c(=O)[nH]c(=O)c2c1nc(CN1CCN(c3cccc(Cl)c3)CC1)n2CCc1ccccc1 | -5% | >57
CCOC(=O)N1CCN(C(=O)Cn2ccc3ccccc3c2=O)CC1 | 5% | >57

One compound at a time (already shown).
O=C1CC(N2CCC(c3nc4ccccc4s3)CC2)C(=O)N1 (configuration not stated) is listed as LT uptake inh = 5%; SmPrx2 inh = >57
O=C(NCC1CCCO1)C1CCN(S(=O)(=O)c2cccc3cccnc23)CC1 (configuration not stated) is listed as LT uptake inh = 1%; SmPrx2 inh = >57

Next part
Structure | LT uptake inh | SmPrx2 inh
CSc1cccc(NC(=O)C2CCN(S(=O)(=O)c3ccc(F)cc3)CC2)c1 | ? | nt
COc1ccc(Br)cc1CNc1ccc(O)cc1 | 6% | >57
Nc1c(N2CCCC2)cc(Cl)c2nonc12 | 19% | nt
CC(c1ccccc1)C1CC(=O)N(c2ccc(C(=O)O)cc2)C1=O (configuration not stated) | 7% | >57
COc1cccc(C(=O)CSc2nnc(-c3cc(OC)cc(OC)c3)o2)c1 | -2% | >57
Cc1cc(C)n(C(=O)CSc2nnc(SCC(=O)n3nc(C)cc3C)s2)n1 | -2% | >57
Cc1ccc(-c2nc3cnccn3c2Nc2ccccc2)o1 | 21% | >57
O=C(CSc1nc2c(c(=O)n1-c1ccc(Cl)cc1)SCC2)NCC1CCCO1 (configuration not stated) | -4% | >57
CCOc1cccc(C(=O)N2CCCCC2c2cccnc2)c1 (configuration not stated) | -11% | nt
COc1cccc(-c2nc(NCc3ccccc3OC)c3ccccc3n2)c1 | 13µM* | >57
COc1ccc(C(C)C)cc1S(=O)(=O)N1CCN(C)CC1 | 22% | >57
O=C(CCCSc1nc2ccccc2[nH]1)Nc1nnc(-c2ccccc2)o1 | 9% | >57
N#Cc1c(NC(=O)CN2CCOCC2)oc(-c2ccccc2)c1-c1ccccc1 | ? | >57
COc1ccc(-c2cc(C(=O)N3CCc4ccccc4C3)no2)cc1OC | ? | >57
CCc1ccc(C2N(c3ccc(OC)cc3)C(=O)C3CCCN32)cc1 (configuration not stated) | 8% | >57
CCC(C)(C(=O)NC1CCCC1)N(Cc1ccco1)C(=O)c1ccc2c(c1)OCO2 (configuration not stated) | 3% | >57
O=C(Cn1cc2c(n1)CCCC2)N1CCCc2ccccc21 | 15% | >57
O=C(CSc1nc2[nH]ncc2c(=O)n1-c1ccccc1Br)NCc1ccco1 | -2% | >57
CCOc1ccc(NS(=O)(=O)c2ccc3[nH]cc(C(=O)NCCOC)c(=O)c3c2)cc1 | 6% | >57
Clc1ccccc1C(c1nnnn1Cc1ccco1)N1CCN(Cc2ccco2)CC1 (configuration not stated) | 0% | >57
O=C1CC(c2nc3ccccc3[nH]2)CN1Cc1ccccc1 (configuration not stated) | 8% | >57
Cc1ccc(S(=O)(=O)NC(=NC(C)C(=O)O)c2ccccc2)cc1 (configuration not stated) | 3% | >57
Cc1ccc2c(c1C)NC(C)CC2C (configuration not stated) | -14% | >57
CCCn1c(Sc2nnnn2-c2ccccc2)n[nH]c1=O | -8% | >57
CN(C)CCNC(=O)c1cc2ccccc2oc1=O | -14% | >57
COc1ccc(OC)c(Nc2ncnc3c2cnn3-c2ccccc2)c1 | -14% | >57
Cc1ccc(CNC(=O)CSc2ncccn2)cc1 | -3% | >57
CC(C)Cc1cc(C(=O)Nc2sc3c(c2C#N)CCCC3)no1 | 7.9µM* | >57
Cc1nn(CCCNC(=O)C2CCCO2)cc1Br (configuration not stated) | -3% | >57
O=C(c1cccc(C(=O)N2CCN(c3ccccc3F)CC2)c1)N1CCN(c2ccccc2F)CC1 | ? | nt
COc1ccc(CCNC(=O)CC2Nc3ccccc3NC2=O)cc1OC (configuration not stated) | 7% | >57
CN(C)Cc1ccc(C(C)(C)C)cc1-c1cc(C(C)(C)C)ccc1CN(C)C | -1%[8 µM] | >57
COc1ccc(S(=O)(=O)Nc2cc(C)ccc2OC)cc1C | nt | >57
COc1ccc(-c2nnc(SCCc3ccccc3)n2N)cc1 | 5% | >57
CCN(CCNC(=O)CN1CCN(Cc2ccc(Cl)cc2)C1=O)c1ccccc1 | -8% | >57
COc1ccc2nc(NC(=O)C3CCCN(S(=O)(=O)c4c(C)noc4C)C3)sc2c1 (configuration not stated) | ? | >57
COc1ccc(C)cc1S(=O)(=O)N(C)CC(=O)NC1CCCCC1 | 8% | >57
Cc1cc(Nc2ccc(F)c(Cl)c2)n2ncnc2n1 | -13% | >57
CCOC(=O)c1cc2sc(C)cc2n1CC(=O)N1CCN(C(=O)c2ccco2)CC1 | -2% | >57
CCCCNC(=O)Nc1ccccc1C(=O)NCc1ccco1 | 0% | >57
CN(C)S(=O)(=O)c1cccc(C(=O)NCC2CCCO2)c1 (configuration not stated) | 1% | >57
COCCOC(=O)C1=C(C)NC2=C(C(=O)CCC2)C1c1cc2c(cc1Br)OCO2 (configuration not stated) | ? | nt
O=C=Nc1ccc(Cc2ccc(N=C=O)cc2)cc1 (tested in a mixture with another compound) | -7%[8 µM] | >57
C[C@@H](C(=O)Nc1ccc2ccccc2c1)[C@H]1C[C@]1(C)[C@H](NP(=O)(c1ccccc1)c1ccccc1)c1ccccc1 | ? | >57
COc1cc2c(cc1OC)C(C(=O)NCc1cccnc1)C(c1cccnc1)N(C)C2=O (configuration not stated) | -11% | >57
Cc1nnc(NC(=O)Cc2cccs2)s1 | -3% | >57
Cc1cccc(OCCCC(=O)Nc2ccc(S(=O)(=O)Nc3onc(C)c3C)cc2)c1 | -5% | >57
COc1ccc(-n2c(=O)cnc3cnc(N(C)C)nc32)cc1 | ? | >57
Cc1nc(CN2CCCC2=NC#N)n(-c2ccccc2)n1 | 4% | >57
O=C(O)CCCc1ccc2ccc3ccccc3c2c1 | ? | >57
O=C(NCCN1CCN(Cc2ccccc2)CC1)C1c2ccccc2C(=O)N2CCc3ccccc3C12 (configuration not stated) | 19% | >57
CCOC(=O)C1CCN(C(=O)Nc2ccc(Cl)cc2)CC1 | 0% | nt
CCn1ccc(=N)cc1 | ? | >57
O=C1CCCN1CCCn1cnc2c([nH]c3ccc(F)cc32)c1=O | ? | >57
COC(=O)c1ccc(CSc2nc3ccccc3o2)cc1 | -12% | >57
CCCNC(=O)OC[C@@H]1O[C@H](CCO/N=C2\c3cc(OC)ccc3O[C@H](c3cccc(OC)c3)[C@H]2O)C=C[C@@H]1Oc1ccc(OC)cc1 | -18%[8 µM] | nt
Cc1ccc2c(c1)N(CC(=O)N1CCCc3ccccc31)C(=O)CO2 | ? | >57
CCOC(=O)c1c(N2C(=O)C3C4C=CC(O4)C3C2=O)sc2c1CCCC2 (configuration not stated) | -24% | nt
CCc1cc2c(=O)n(-c3ccccc3)cnc2s1 | -1% | >57
COC(=O)c1sc(N)c(C(=O)OC)c1CSc1nnnn1C | 2% | >57

(listing goes on)
canonical_smiles	LT uptake inh	SmPrx2 inh
O=C(Cc1ccccc1)N1CCC(C(=O)N2CCN(c3ccc(F)cc3)CC2)CC1	-7%	nt
Cn1c(=O)c2[nH]cnc2n(-c2ccccc2)c1=O	2%	>57
COc1ccc(-n2nnnc2SCC(=O)Nc2ccc3c(c2)OCCO3)c(OC)c1	-9%	>57
O=c1c(-c2cccs2)nc2cncnc2n1-c1ccccc1	?	>57
COC(=O)[C@@]1(Cc2ccccc2)[C@@H]2C(=CC(=O)[C@H]2CC(=O)C(=O)N(C)C)CN1C(=O)c1ccccc1	?	>57
COCCN(C(=O)CNC(=O)c1ccco1)C(C(=O)NC1CCCCC1)c1cccc(OC)c1 (configuration not stated)	-2%	>57
Cn1c(=O)[nH]c(=O)c2[nH]c(N(Cc3ccccc3)Cc3ccccc3)nc21	?	nt
Cn1c(C(=O)NCCC2=CCCCC2)cc2c(=O)n3ccccc3nc21	19%	>57
O=[n+]1c2c(n([O-])c3cc(F)ccc31)CCCC2	-8%	>57
NC1=C(O)C(=O)[C@H](c2c[nH]c3ccc(OCc4ccccc4)cc23)O1	?	>57
COCCN(CCOC)c1nc(C)nc2c1nc(-c1ccccc1)n2CC1CCN(C)CC1	6%	nt
Cc1noc(C)c1S(=O)(=O)N1CCCC(C(=O)Nc2ccc(Cl)cn2)C1 (configuration not stated)	-2%	>57
CCN(CC)S(=O)(=O)c1ccc2[nH]c(=O)[nH]c2c1	22%	>57
O=C(c1ccncc1)N1CCC2(CC1)CN(c1ccccn1)C2	-5%	>57
COc1ncc2nc(-c3ccccc3)c(=O)n(Cc3cccs3)c2n1	?	>57
Fc1cccc(F)c1C(Nc1nncs1)Nc1nncs1	-8%[8 µM]	>57

Structures above with bromine (5):
canonical_smiles	LT uptake inh	SmPrx2 inh
COc1cccc(C2C=C(c3ccc(Br)s3)Nc3ncnn32)c1OC (configuration not stated)	?	>57
COc1ccc(Br)cc1CNc1ccc(O)cc1	6%	>57
O=C(CSc1nc2[nH]ncc2c(=O)n1-c1ccccc1Br)NCc1ccco1	-2%	>57
Cc1nn(CCCNC(=O)C2CCCO2)cc1Br (configuration not stated)	-3%	>57
COCCOC(=O)C1=C(C)NC2=C(C(=O)CCC2)C1c1cc2c(cc1Br)OCO2 (configuration not stated)	?	nt

(cont.)
canonical_smiles	LT uptake inh	SmPrx2 inh
O=C(O)c1c[nH]c2c(ccc3[nH]cc(C(=O)O)c(=O)c32)c1=O	-5%[8 µM]	>57
Cc1cccc(N2C(=O)CC(N(C(=O)c3ccco3)c3cccc(C)c3)C2=O)c1 (configuration not stated)	?	>57
CS(=O)(=O)Nc1ccc(C(=O)NCCSCc2ccco2)cc1	-8%	>57
Cc1c(C)c2ccc(OC3CCCCC3=O)cc2oc1=O (configuration not stated)	-4%	nt
CC1(C)CC(NC(=O)C(F)(F)F)CC(C)(C)N1OC(=O)c1ccco1	-6%	>57
Cc1ccc(OCCn2c(=O)cnc3ccccc32)cc1	-17%	>57
O=S(=O)(N1CCCCC1)n1c(Cc2ccccc2)nc2ccccc21	?	>57
CCOc1ccccc1N1CC(C(=O)Nc2ccc(C(=O)O)cc2)CC1=O (configuration not stated)	-18%	>57

Next section; it opens with the 3 that closed the last part.
canonical_smiles	LT uptake inh	SmPrx2 inh
Cc1ccc(OCCn2c(=O)cnc3ccccc32)cc1	-17%	>57
O=S(=O)(N1CCCCC1)n1c(Cc2ccccc2)nc2ccccc21	?	>57
CCOc1ccccc1N1CC(C(=O)Nc2ccc(C(=O)O)cc2)CC1=O (configuration not stated)	-18%	>57
CCOC(=O)C1CCCN(Cc2cc(Br)ccc2OC)C1 (configuration not stated)	?	nt
Cc1ccc2c(c1)N(CCCC(=O)NCC1COc3ccccc3O1)C(=O)CO2 (configuration not stated)	5%	>57
CC(C)(C)n1nnnc1C(c1cccs1)N(Cc1cccnc1)CC1CCCO1 (configuration not stated)	-8%	>57
CCOC(=O)C1CCCN(C/C(O)=C(\C#N)c2nc(-c3ccc(Cl)cc3)cs2)C1 (configuration not stated)	-26%	>57
O=C1NC(O)=NC1(c1ccccc1)c1ccccc1	?	>57
OCCN1CCN(CCC=C2c3ccccc3Sc3ccc(Cl)cc32)CC1	?	>57
CC(=O)c1cccc(NC(=O)C2CCCN(S(=O)(=O)c3ccc(F)cc3)C2)c1 (configuration not stated)	nt	>57
Cn1c(=O)cc(SCC(=O)N2CCN(Cc3ccc4c(c3)OCO4)CC2)c2ccccc21	8%	>57
CCOC(=O)CSc1cc(C)nc(N)n1	-11%	>57
COc1ccc(N2CCN(CCNC(=O)CCCn3c(=O)[nH]c4cc(Cl)ccc4c3=O)CC2)cc1	5%	>57
Cc1cc(NS(=O)(=O)c2ccc(NC(=O)CCCC(=O)O)cc2)nc(C)n1	2%	nt
COc1ccc(C(NC(C)=O)c2ccc3cccnc3c2O)c(OC)c1 (configuration not stated)	13%	nt
COCCN(C(=O)CNC(=O)c1cccs1)C(C(=O)NC1CCCCC1)c1ccco1 (configuration not stated)	-8%	>57
COc1ccccc1CN(Cc1cc2c(C)ccc(C)c2[nH]c1=O)Cc1nnnn1Cc1ccco1	16µM*	>57
